gsp ag: gsp mutant agonism; Potency, µM (top dose mostly 76.9 µM), without a hit: at the top dose activation (cAMP increase), most hits filed as activators; gsp mutant cells, cAMP HTRF, 30 min; control for the full effect not named in the record; 0.13% of 340,000 active; AID 624287; active = well fitted activation curve with a large enough effect; inconclusive = small, poorly fitted or top-dose-only effect, or another doubt; inactive = no such curve, though single readings can be large or run the other way; cell line not stated here;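 further: phosphodiesterase inhibitor Ro 20-1724 added with compounds to block cAMP breakdown; potency means the concentration at half of the fitted maximal effect; nearly all actives have a fitted effect of over 60% in size; about a fifth of the inactives were tested at one dose only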
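Cells stably selected in G418 were plated at 2000/well, grown 16-24 hr, then given compounds in DMSO with the PDE inhibitor […] (300 uM solution added) for 30 min at 37C; cAMP was read by HTRF.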
Sfp inh: inhibitors of Bacillus subtilis Sfp phosphopantetheinyl transferase; Q9F4F7; Biochemical Sfp PPTase activity, qHTS; Potency, µM, for inactives: max response, negative = inhibition, hits mostly inhibitors; 3.5% of 310,000 active; AID 1490; active means well fitted inhibition curve with a large enough effect; inconclusive means small, poorly fitted or top-dose-only effect, or another doubt; inactive means no such curve, though single readings can be large or run the other way;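 further: the enzyme is Sfp with the accession as filed and its product quenches rhodamine fluorescence; potency means the concentration at half of the fitted maximal effect; 0% = enzyme reaction without inhibitor and -100% = no enzyme wells; top concentration of the series not given in the record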
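Fluorescence-quenching assay with 15 nM Sfp, 5 uM rhodamine-CoA and 12.5 uM BHQ-2-labelled ybbR peptide in pH 7.6 Hepes/MgCl2 buffer. Enzyme was pre-incubated with compound for 15 min at room temperature. Rate was taken from the 30-min fluorescence change (525/598 nm).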
ClpP mod: qHTS Assay for Activators of ClpP. ATP-dependent Clp protease proteolytic subunit (Bacillus subtilis (strain 168)), P80244. purified B. subtilis ClpP, FRET peptide cleavage, 20 min. Potency, µM (doses to about 57.5 µM), inactives show at the highest dose activity change, negative = active. 1.9% of 340,000 active. AID 651965, 2013; active = well fitted falling curve with a large enough effect; inconclusive = small, poorly fitted or top-dose-only effect; inactive = no such curve, though single readings can be large or run the other way; further: potency means the concentration at half of the fitted maximal effect; the source files actives as falling curves though it sought activators and does not explain the sign; nearly all actives have a fitted effect of over 65% in size; many hits overshoot -100%
Target sequence (P80244 whole entry, looked up): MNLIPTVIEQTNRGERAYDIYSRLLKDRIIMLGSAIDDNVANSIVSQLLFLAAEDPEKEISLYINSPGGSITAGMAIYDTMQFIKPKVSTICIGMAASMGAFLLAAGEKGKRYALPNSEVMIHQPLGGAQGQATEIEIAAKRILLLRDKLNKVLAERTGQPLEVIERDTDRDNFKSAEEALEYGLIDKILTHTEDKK
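ClpP 10 microg/mL final, pH 8 Tris/KCl buffer with BSA, glycerol, Tween-20; compound pinned in; FRET-FV substrate; RT 20 min; Ex320/Em430; ΔFRET vs ADEP 5.8 microM, DMSO, no enzyme.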
Menin-MLL FL inh: displaces fluorescein MLL peptide from human menin. AID 1766. Fluorescence polarization, fluorescein-MLL peptide displacement from menin. 290,000 tested, under 10 active. FP activity change, % at 61.4 µM; inconclusive = falling polarisation curve, or a change in total fluorescence; inactive = total fluorescence flat and polarisation flat or rising; no compound was filed as active; the % refers to the polarisation; negative = inhibition;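 further: % of control where 0% means no effect; inhibitors lower the polarisation; unlabelled MLL peptide was the positive control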
PINK1 modulator: PINK1 expression modulation; PINK1 immunofluorescence, high-content cytometry, 24 h; Potency, µM (top dose mostly 76.6 µM), for the others: top-dose activation (PINK1 increase), usual class: activators; 0.2% of 410,000 active; active = well fitted activation curve with a large enough effect; inconclusive = small, poorly fitted or top-dose-only effect; inactive = flat fitted curve, though single readings scatter; cell line not stated here;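 further: potency means the concentration at half of the fitted maximal effect; % of control where 0% means no effect; nearly all actives have a fitted effect of over 65% in size; a mitochondrial uncoupler was the plate control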
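Fluorescence from anti-PINK1 antibody, together with nuclear and cell stains, was scanned on a laser-scanning cytometer. Before staining, stable-line cells were incubated 24 hours with compounds at 5 concentrations; primary antibody 12 h at 10 degrees C.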
gsp antagonist: gsp mutant antagonism; gsp-mutant cells, cAMP HTRF, 30 min; control for the full effect not named in the record; Potency, µM (series often up to 76.9 µM), inactives show at the highest dose activity change, negative = inhibition, hits mostly inhibitors; 0.4% of 340,000 active; AID 624288; active = falling curve of any shape with a large fitted effect; inconclusive = falling curve, mostly with a smaller effect; inactive = flat or rising curve; cell line not stated here;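 further: intracellular cAMP measured with PDE inhibitor Ro 20-1724 present during compound exposure; potency means the concentration at half of the fitted maximal effect; on the % scale 0 is the no-effect control and ±100 the full control effect; nearly all actives have a fitted effect of over 65% in size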
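HTRF cAMP measurement after 30 min RT detection following 30 min, 37C compound treatment alongside […] (added as 300 uM solution) in G418-selected cells seeded at 2000/well and grown 16–24 h.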
D2 agonist: agonists of human D2 dopamine receptor (beta-arrestin); 0.084% of 360,000 active; P14416; activation, % (test concentration not listed); AID 624465; DiscoveRx PathHunter D2 beta-arrestin, luminescence, 90 min; 100% = 57 uM dopamine signal; in the data active = activation above about 40%; inconclusive = about 15% to 40%; inactive = below about 15%; further: compound concentration not given in the record; the text of the record calls up to 30% inactive
Target sequence (P14416 whole entry, looked up): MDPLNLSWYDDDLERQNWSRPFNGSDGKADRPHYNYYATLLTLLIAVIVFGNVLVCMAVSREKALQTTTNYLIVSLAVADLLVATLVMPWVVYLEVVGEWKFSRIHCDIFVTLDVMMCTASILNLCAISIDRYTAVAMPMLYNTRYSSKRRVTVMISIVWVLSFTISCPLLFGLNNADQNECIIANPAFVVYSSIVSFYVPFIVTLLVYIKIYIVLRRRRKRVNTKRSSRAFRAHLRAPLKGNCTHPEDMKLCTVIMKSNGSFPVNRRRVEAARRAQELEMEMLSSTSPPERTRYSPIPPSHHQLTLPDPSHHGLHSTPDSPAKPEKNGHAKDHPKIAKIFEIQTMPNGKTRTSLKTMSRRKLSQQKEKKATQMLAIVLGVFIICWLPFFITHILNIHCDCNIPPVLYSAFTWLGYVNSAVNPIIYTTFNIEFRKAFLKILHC
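DiscoveRx PathHunter D2 beta-arrestin cells (2,100/well) attached overnight, then compound-stimulated 90 min at 37 C in HBSS/10 mM HEPES/0.1% Tween-20 buffer; beta-galactosidase complementation read by luminescence after 1 h at ambient temperature. Dopamine 57 uM final (EC100) as control.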
Active calls of the source: *; [ ] = remark or other dose.

Results for Cc1ccc(NS(=O)(=O)c2c(C(=O)N3CCCCCC3)c(C)n(C)c2C)cc1C ?
gsp ag: -25%; Sfp inh: 10%; ClpP mod: 0.2%; PINK1 modulator: 3.0%; gsp antagonist: 6%; D2 agonist: 3.7

Results for Cc1ccc(C(=O)O)cc1S(=O)(=O)N1CCCC1 ?
gsp ag: 5%; Sfp inh: 17%; ClpP mod: -3.0%; Menin-MLL FL inh: -2.5; PINK1 modulator: -0.7%; gsp antagonist: 2%; D2 agonist: 1.7

Results for O=C(Cc1ccccc1)N1CCC(C(=O)N2CCN(c3ccc(F)cc3)CC2)CC1 ?
gsp ag: -67%[inhibitor]; Sfp inh: -6%; ClpP mod: -0.6%; Menin-MLL FL inh: 5.5; PINK1 modulator: -0.1%; gsp antagonist: -6%; D2 agonist: -1.4

What do the screens show for `Cc1ccc(NC(=S)N(CCCN2CCOCC2)Cc2cccs2)c(C)c1`?
gsp ag: -17%[15.4 µM]; Sfp inh: 25µM*; ClpP mod: -1.3%; Menin-MLL FL inh: -1.3; PINK1 modulator: 1.3%; gsp antagonist: 6%; D2 agonist: -3.5

How did CCn1c(Cc2ccccc2)nnc1SC(C)C(=O)NC1CC1 (stereo not drawn) do in these assays?
gsp ag: -29%; ClpP mod: 0.3%; PINK1 modulator: 0.7%; gsp antagonist: 9%; D2 agonist: 0.8

How did Cc1ccc(NC(=O)c2cc(=O)[nH]c3ccccc23)cc1C do in these assays?
gsp ag: 6%[15.4 µM]; Sfp inh: -7%; ClpP mod: 0.4%; Menin-MLL FL inh: -4.1; PINK1 modulator: 9.4%; gsp antagonist: 2%; D2 agonist: -4.2

How did COc1ccc(Cc2nc3ccc(C(=O)NCC4COCCO4)cc3o2)cc1 (stereo not drawn) do in these assays?
gsp ag: -39%[inhibitor]; Sfp inh: 7%; ClpP mod: -5.5%; PINK1 modulator: -4.1%; gsp antagonist: 5%; D2 agonist: 0.6

Results for O=C(O)c1ncsc1-c1ccccc1 ?
gsp ag: -22%; Sfp inh: 25µM*; ClpP mod: -3.3%; Menin-MLL FL inh: 0.2; PINK1 modulator: 0.8%; gsp antagonist: 10%; D2 agonist: 2.0

Results for Nc1c(C(=O)NCc2ccco2)c2nc3ccccc3nc2n1CCc1ccccc1 ?
gsp ag: 22%; Sfp inh: 50µM*; ClpP mod: 3.9%; Menin-MLL FL inh: 8.3; PINK1 modulator: 3.4%; gsp antagonist: inconclusive; D2 agonist: -4.7

How did O=C(COC(=O)c1cccs1)Nc1nnc(-c2ccccc2)o1 do in these assays?
gsp ag: -24%; ClpP mod: 6.6%; PINK1 modulator: -0.6%; gsp antagonist: 5%; D2 agonist: 1.2

Results for C=CCn1c(=S)[nH]c2cc(C(=O)Nc3ccc(OC)c(OC)c3)ccc2c1=O ?
gsp ag: 7%; Sfp inh: -18%; Menin-MLL FL inh: 9.4; PINK1 modulator: 2.0%; gsp antagonist: -9%; D2 agonist: 6.2

What do the screens show for `CCOc1ccccc1C(=O)NCC(=O)Nc1ncccc1C`?
gsp ag: -1%; ClpP mod: -3.8%; PINK1 modulator: -2.6%; gsp antagonist: 4%; D2 agonist: -2.3

How did OC(Cc1ccncc1)c1ccccc1Cl (stereo not drawn) do in these assays?
gsp ag: 29%; PINK1 modulator: 4.6%; gsp antagonist: -10%; D2 agonist: -2.5

Results for COc1cc(/C=N/NC(=O)c2cc(O)cc(O)c2)ccc1OC(=O)c1ccccc1 ?
gsp ag: -2%[15.4 µM]; Sfp inh: -12%; ClpP mod: 1.7%; Menin-MLL FL inh: 1.4; PINK1 modulator: 1.4%; gsp antagonist: inconclusive; D2 agonist: 1.5

Results for C#CCOCCOCCOCCNc1nc(N2CCN(C(=O)[C@H]([C@@H](C)CC)n3cc([C@@H](N)Cc4ccc(O)cc4)nn3)CC2)nc(N2CCN(C(=O)[C@H](Cc3cc4ccccc4[nH]3)n3cc([C@@H](N)CC(C)C)nn3)CC2)n1 ?
gsp ag: -31%[inhibitor]; ClpP mod: -5.2%; PINK1 modulator: 5.1%; gsp antagonist: 10%; D2 agonist: -5.7

What do the screens show for `CC(Sc1nnc(N)s1)C(=O)Nc1nccs1` (stereo not drawn)?
gsp ag: 7%; Sfp inh: 28%; ClpP mod: -0.8%; PINK1 modulator: -0.2%; gsp antagonist: 7%; D2 agonist: -0.7

How did Cc1cc2oc(C(=O)Nc3ccc(S(=O)(=O)Nc4onc(C)c4C)cc3)cc(=O)c2cc1Cl do in these assays?
gsp ag: 8%; Sfp inh: -3%; ClpP mod: 1.7%; Menin-MLL FL inh: 3.5; PINK1 modulator: 2.1%; gsp antagonist: 2%; D2 agonist: -3.6

Results for COc1ccc(-n2nnnc2SCC(=O)Nc2ccc3c(c2)OCCO3)c(OC)c1 ?
gsp ag: -35%[inhibitor]; Sfp inh: -17%; ClpP mod: 1.0%; Menin-MLL FL inh: 2.2; PINK1 modulator: inconclusive; gsp antagonist: -30%; D2 agonist: 1.1

What do the screens show for `CCCCC1=NN(C(=O)c2ccncc2)C(O)(C(F)(F)F)C1` (stereo not drawn)?
gsp ag: 2%[15.4 µM]; Sfp inh: 19%; ClpP mod: -4.0%; Menin-MLL FL inh: 0.3; PINK1 modulator: -2.0%; gsp antagonist: 1%; D2 agonist: -3.1

What do the screens show for `Cc1cccc(OCCn2nc(C(=O)O)c3ccccc3c2=O)c1`?
gsp ag: -22%; Sfp inh: -26%; ClpP mod: -1.2%; Menin-MLL FL inh: 1.0; PINK1 modulator: -2.2%; gsp antagonist: 4%; D2 agonist: -4.3

Results for Cc1ccc(N2C(=O)C(Cl)=C(N3CCCCCC3)C2=O)cc1 ?
gsp ag: -18%; Sfp inh: -17%; ClpP mod: -0.4%; Menin-MLL FL inh: -1.9; PINK1 modulator: 0.7%; gsp antagonist: inconclusive; D2 agonist: -4.5

How did COc1ccccc1N(Cc1ccccc1)S(=O)(=O)c1cccc(C(=O)Nc2cc(C)ccn2)c1 do in these assays?
gsp ag: -7%; Sfp inh: 13%; ClpP mod: -13%; Menin-MLL FL inh: -2.7; PINK1 modulator: -0.9%; gsp antagonist: -8%; D2 agonist: -1.1

How did C[C@H](NC(=O)[C@H](Cc1ccccc1)n1c(=O)[nH]c2ccccc2c1=O)C(=O)N1CCC[C@H]1C(=O)O do in these assays?
gsp ag: -19%; Sfp inh: -7%; ClpP mod: 4.5%; Menin-MLL FL inh: -3.3; PINK1 modulator: 0.7%; gsp antagonist: -3%; D2 agonist: -0.8

How did Cc1cc2cc(CNC(=O)Nc3cccc(Cl)c3)ccc2n1C do in these assays?
gsp ag: inconclusive; Sfp inh: inconclusive; ClpP mod: -1.6%; Menin-MLL FL inh: -23; PINK1 modulator: -0.5%; gsp antagonist: 3%; D2 agonist: -1.6

What do the screens show for `C=CCNC(=S)N(Cc1ccccc1)Cc1ccc(F)cc1`?
gsp ag: inconclusive; Sfp inh: -4%; Menin-MLL FL inh: -3.9; PINK1 modulator: -1.7%; gsp antagonist: -11%; D2 agonist: -2.0

How did CC1(C)CC(NC(=O)C(F)(F)F)CC(C)(C)N1OC(=O)c1ccco1 do in these assays?
gsp ag: -17%; Sfp inh: 19%; ClpP mod: 0.7%; Menin-MLL FL inh: 2.1; PINK1 modulator: -0.7%; gsp antagonist: -5%; D2 agonist: -3.0

How did CC(Sc1nnc(-c2cccs2)n1-c1ccccc1)C(=O)NCc1ccc2c(c1)OCO2 (stereo not drawn) do in these assays?
gsp ag: -19%; Sfp inh: 7%; ClpP mod: -3.5%; Menin-MLL FL inh: 0.7; PINK1 modulator: -3.3%; gsp antagonist: -25%; D2 agonist: 2.1

How did Cc1ccc(NC(=O)CSCC(=O)N2CCCc3ccccc32)cc1 do in these assays?
gsp ag: 2%[15.4 µM]; PINK1 modulator: -1.6%; gsp antagonist: inconclusive; D2 agonist: -1.6

Results for Oc1c(Br)cc(Br)cc1/C=N/c1nc2c(s1)CCCC2 ?
gsp ag: 32%; ClpP mod: -0.6%; PINK1 modulator: 2.3%; gsp antagonist: -24%; D2 agonist: -5.7

Results for CN1OC[C@@H]2CN(S(=O)(=O)c3cccc4ccccc34)[C@H](c3ccc(N4CCCCC4)cc3)C[C@@H]21 ?
ClpP mod: -4.2%; PINK1 modulator: -0.1%; D2 agonist: -4.8

How did CC(C)c1cc(C(=O)N2CCCC(CCC(=O)NCc3ccccc3F)C2)n(C)n1 (stereo not drawn) do in these assays?
gsp ag: -4%[15.4 µM]; Sfp inh: 22%; Menin-MLL FL inh: -1.5; PINK1 modulator: 1.8%; gsp antagonist: 3%; D2 agonist: 0.5

Results for Cc1ccccc1-n1c(=O)n(Cc2ccccc2)c(=O)c2[nH]cnc21 ?
gsp ag: -11%[15.4 µM]; Sfp inh: 2%; ClpP mod: -5.0%; Menin-MLL FL inh: 1.6; PINK1 modulator: 4.0%; gsp antagonist: -7%; D2 agonist: -13

How did CCn1c(CSc2ncn[nH]2)nc2cc(C(=O)O)ccc21 do in these assays?
gsp ag: 2%; Sfp inh: -33%; ClpP mod: -7.1%; Menin-MLL FL inh: 5.4; PINK1 modulator: -0.2%; gsp antagonist: 11%; D2 agonist: -3.6

How did Cc1ccc(CS(=O)Cc2ccc(C(=O)NCc3ccccc3)o2)cc1 (stereo not drawn) do in these assays?
gsp ag: -61%[inhibitor]; Sfp inh: 10%; ClpP mod: -0.7%; Menin-MLL FL inh: 0.7; PINK1 modulator: -0.8%; gsp antagonist: 14%; D2 agonist: 3.8

How did O=S(=O)(N1CCCCC1)n1c(Cc2ccccc2)nc2ccccc21 do in these assays?
gsp ag: 5%; Sfp inh: 4%; ClpP mod: 0.5%; Menin-MLL FL inh: -0.6; PINK1 modulator: 0.7%[38.3 µM]; gsp antagonist: -8%; D2 agonist: -1.1

Results for O=C(CSc1nnc(Cc2ccsc2)o1)c1ccccc1 ?
gsp ag: 14%[15.4 µM]; Sfp inh: -6%; Menin-MLL FL inh: 8.7; PINK1 modulator: -0.1%; gsp antagonist: 2%; D2 agonist: -2.4

Results for O=C(Nc1cccc(O)c1)c1cc(-c2ccco2)on1 ?
gsp ag: -8%; Sfp inh: -7%; ClpP mod: -1.0%; Menin-MLL FL inh: 6.3; gsp antagonist: -11%; D2 agonist: 2.6
